# Assay outcomes: PubChem BioAssay, National Center for Advancing Translational Sciences (NCATS)
# PINK1 expr mod: modulators of PINK1 expression; 410,000 tested, 0.2% active; Potency, µM (doses to about 76.6 µM), without a hit: at the top dose activation (PINK1 increase), most hits filed as activators; PINK1 immunofluorescence, high-content cytometry, 24 h; active = well fitted activation curve with a large enough effect; inconclusive = small, poorly fitted or top-dose-only effect; inactive = flat fitted curve, though single readings scatter; cell line not stated here;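 note: potency is the fitted concentration of half-maximal effect; % of control where 0% means no effect; nearly all actives have a fitted effect of over 65% in size; a mitochondrial uncoupler was the plate control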
#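 PINK1 protein, normally rapidly degraded, was detected by immunofluorescence after 24 hour compound treatment of a stable cell line. Titration data (5 concentrations) came from laser-scanning cytometry, with CCCP-treated wells as controls.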
# D2 potentiator: human D2 receptor positive allosteric modulation | DiscoveRx D2 beta-arrestin cells, luminescence, 90 min; 100% = 57 uM dopamine signal | potentiation, % (test concentration not listed) | 360,000 tested, 0.23% active; active = potentiation of 50% or more; inconclusive = 30% to 50%; inactive = 30% or less;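 note: compound concentration not given in the record; tested on top of an EC20 dose of dopamine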
#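 D2 cells co-treated with compound plus 50 nM dopamine (EC20) for 90 min at 37 deg C to detect potentiation. Beta-arrestin recruitment was read as enzyme-fragment luminescence after 1 h at ambient temperature. Full response was set by 57 uM dopamine.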
# TRPML1 ag: human mucolipin-1 channel agonism. Q9GZU1. TRPML1-expressing cells, Ca2+ dye fluorescence, FDSS; host cell line not named in the record; reference of the full effect not given here. activation, % (no concentration beside the values). 410,000 tested, 0.12% active. AID 624414; in the data active = activation above about 50%; inconclusive = about 30% to 50%; inactive = below about 30%; note: 0% is about no effect; the text of the record puts the active cut at 80%
#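 Kinetic FDSS Ca2+ read in Tet-induced TRPML1-DL cells (ABD Ca8 dye plus quencher, 45-90 min RT loading): baseline, then compound, then 110 s agonist window; EC80 agonist 54-4 at 4uM final added afterwards for a 110 s antagonist window.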
# TRPML1 inh: human mucolipin-1 channel inhibition; activity change, negative = inhibition, % (concentration not given with the values); TRPML1-inducible cells, Ca2+ dye fluorescence, FDSS; active compounds read low; inhibition of EC80 agonist-evoked calcium signal; AID 624415; 390,000 tested, 0.02% active; in the data active means activity change below about -50%; inconclusive means about -30% to -50%; inactive means above about -30%;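 note: stimulus is agonist 54-4 at its EC80 concentration; % is set by controls: 0 for no effect and ±100 for the full control effect; the text of the record puts the active cut at -80%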
#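 Tet-induced TRPML1-DL cells loaded with Ca8 no-wash calcium dye were read kinetically on FDSS. Compound addition was followed by EC80 agonist 54-4 (4 uM final); inhibition was read over 110 s.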
# D2 ag: agonists of human D2 dopamine receptor (beta-arrestin) | AID 624465 | activation, % (concentration not given with the values) | P14416 | 360,000 tested, 0.084% active | DiscoveRx PathHunter D2 beta-arrestin, luminescence, 90 min; 100% = 57 uM dopamine signal; in the data active = activation above about 40%; inconclusive = about 15% to 40%; inactive = below about 15%; note: compound concentration not given in the record; the text of the record calls up to 30% inactive
#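 DiscoveRx PathHunter D2 beta-arrestin cells (2,100/well) attached overnight, then compound-stimulated 90 min at 37 C in HBSS/10 mM HEPES/0.1% Tween-20 buffer; beta-galactosidase complementation read by luminescence after 1 h at ambient temperature. Dopamine 57 uM final (EC100) as control.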
# Six1-Eya2 inh: Six1/Eya2 interaction inhibition; 360,000 tested, 0.56% active; activity change, % (test concentration not listed); AlphaScreen GST-Six1/His-Eya2 binding, biochemical; active compounds read low; control for the full effect not named in the record; in the data active = activity change below about -65%; inconclusive = about -30% to -65%; inactive = above about -30%; note: % is set by controls: 0 for no effect and ±100 for the full control effect
# Target sequence (O00167 whole entry, looked up): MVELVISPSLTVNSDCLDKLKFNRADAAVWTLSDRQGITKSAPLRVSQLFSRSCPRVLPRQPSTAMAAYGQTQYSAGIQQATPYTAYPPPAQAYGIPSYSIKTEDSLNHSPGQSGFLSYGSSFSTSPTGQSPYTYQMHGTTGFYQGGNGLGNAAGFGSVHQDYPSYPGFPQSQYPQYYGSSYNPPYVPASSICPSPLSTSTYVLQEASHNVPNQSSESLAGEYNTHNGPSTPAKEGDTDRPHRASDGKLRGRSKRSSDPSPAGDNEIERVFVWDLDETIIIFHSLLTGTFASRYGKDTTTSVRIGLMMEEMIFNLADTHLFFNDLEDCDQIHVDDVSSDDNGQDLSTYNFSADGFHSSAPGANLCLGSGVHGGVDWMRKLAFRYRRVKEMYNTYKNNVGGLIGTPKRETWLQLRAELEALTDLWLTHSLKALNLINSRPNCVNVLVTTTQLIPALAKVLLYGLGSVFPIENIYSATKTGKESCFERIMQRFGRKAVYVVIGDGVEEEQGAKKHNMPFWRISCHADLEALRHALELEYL
# Target sequence (Q15475 whole entry, looked up): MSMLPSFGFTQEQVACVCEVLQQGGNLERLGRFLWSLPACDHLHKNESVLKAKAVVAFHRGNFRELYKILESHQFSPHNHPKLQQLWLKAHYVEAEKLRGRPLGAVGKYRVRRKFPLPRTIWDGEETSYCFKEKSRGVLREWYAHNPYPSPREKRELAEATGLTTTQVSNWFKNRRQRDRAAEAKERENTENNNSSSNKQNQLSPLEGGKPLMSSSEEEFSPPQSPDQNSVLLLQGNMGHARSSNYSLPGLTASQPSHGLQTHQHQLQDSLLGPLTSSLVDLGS
#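 Six1/Eya2 binding was read as AlphaScreen signal after compounds were pinned into GST-Six1 plus His-tagged Eya2 (5X stock 250/500 nM) in pH 8.0 Tris/NaCl/TCEP buffer, beads added, then incubated 1 h, 37 C, dark.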
# The depositor's hits bear a star; u = inconclusive; x = no result given; [ ] = another dose, or the depositor's remark.
# Each structure is followed by: TRPML1 ag, PINK1 expr mod, D2 potentiator, TRPML1 inh, Six1-Eya2 inh, D2 ag
COc1ccc(NC(=O)c2cc(C3CCCCN3C(=O)CCc3ccccc3)on2)c(C)c1 (stereo not given)
 : -0.3, 1.8%, -7.9, x, -10.3, 3.4
O=c1c2ccccc2nc(/C=C/c2ccc3c(c2)OCO3)n1CCCO
 : 1.7, -1.7%, 6.4, 16.4, -2.2, 5.5
NNC(=O)c1csc(Cc2c(Cl)sc3ccc(Cl)cc23)n1
 : -0.6, 3.0%, -2.7, -9.4, -7.5, -0.1
COC(=O)c1c(NC(=S)NN2CCN(C)CC2)sc2c1CCC(C)C2 (stereo not given)
 : 1.0, -1.4%, -21.9, 3.8, -10.0, -4.2
CCc1nc(C)cn1S(=O)(=O)c1cc(C)c(OC)cc1C
 : -0.2, -1.2%, -2.5, 13.4, -3.0, -4.7
O=C(NC1CCCc2ccccc21)C1CCN(C(=O)c2sccc2-n2cccc2)CC1 (stereo not given)
 : -0.1, -0.2%, -5.8, -3.9, -11.3, -8.1
CC(=O)NC(=S)Nc1ccccc1C(=O)NC1CCCCC1
 : 3.5, -0.5%, -12.7, -0.9, -1.5, -1.5
Cc1cccc(N2CCN(C(=O)c3ccc4[nH]c(C)c(C)c4c3)CC2)c1C
 : 0.7, 9.1%, -4.5, 5.6, -20.2, -4.9
CCOC(=O)CN1C(=O)C(Sc2n[nH]c(-c3ccc(C)cc3)n2)CCc2ccccc21 (stereo not given)
 : 0.2, 12.8%[38.3 µM], -27.0, -0.2, -5.9, -4.1
CCOC(=O)N1CCC(NC(=O)c2c(C)nn(-c3cccc(C)c3)c2-n2cccc2)CC1
 : 2.5, 1.0%, x, 3.0, x, x
Cc1ccc(NC2c3ncccc3C(=O)N2C2CCCCC2)cc1C (stereo not given)
 : -0.2, u, -11.6, -1.7, 4.3, -2.3
CCc1c(C)sc(NC(=O)OC)c1C(=O)N1CCCCC1
 : 0.0, 4.0%[38.3 µM], -0.5, 4.0, -1.4, -2.5
COc1ccc(OCCc2nnc(N)s2)cc1
 : -1.0, -5.2%, 7.0, -6.1, 4.4, -1.7
O=C(NCCN1CCOCC1)c1ccc(/C=C2\Sc3ccccc3N(Cc3ccc(F)cc3)C2=O)cc1
 : -1.1, -0.6%, 0.7, -4.8, -5.2, 3.3
O=C(COC(=O)CNC(=O)C1CCCCC1)Nc1ccccc1OC(F)F
 : -0.4, -3.5%, -11.9, -19.0, 8.4, 1.0
CC(C)CN(CCNC(=O)CC1Oc2ccccc2NC1=O)CC(C)C (stereo not given)
 : 0.0, 0.7%, -12.3, -3.5, 2.7, -6.3
O=C(CCCCCn1c(=O)c2sccc2n(Cc2ccccc2Cl)c1=O)NCc1ccc2c(c1)OCO2
 : 0.0, 0.5%, x, -3.2, x, x
CCCCn1c(N)c(N(CC(C)C)C(=O)CSc2ccccc2C)c(=O)[nH]c1=O
 : 0.3, 6.0%, 1.0, -14.2, 3.1, 1.7
CC(OC(=O)CCCCCN=C1NS(=O)(=O)c2ccccc21)C(=O)Nc1cc(Cl)cc(Cl)c1 (stereo not given)
 : 1.6, 5.6%, -10.5, 14.3, -2.2, 4.0
CCOC(=O)C1C(=O)NC(c2ccccc2)=NC1c1ccc(C(C)C)cc1 (stereo not given)
 : 2.3, 5.3%, -11.6, 1.3, 21.6, -2.6
Cc1oc(-c2cccs2)nc1CN1CC[C@@](O)(c2ccccc2)[C@H]2CCCC[C@@H]21
 : -0.6, 3.8%, -14.2, 3.8, 1.9, -0.6
CC(C)(C)S(=O)(=O)/C(C#N)=N/Nc1ccc(Cl)cc1
 : -0.1, 28.2µM*, -9.3, 2.4, -11.1, -3.9
COc1ccc(CCNC(=O)CSCc2nc(-c3cccc(C)c3)oc2C)cc1OC
 : 0.7, -1.0%, x, 1.5, x, x
Cc1ccc(S(=O)(=O)N2C[C@H]3C(=O)C[C@@H](c4ccc(Cl)cc4)N(S(=O)(=O)c4ccc(C)cc4)[C@H]3C[C@H]2c2ccc(Cl)cc2)cc1
 : 0.5, -0.3%, -0.8, 12.2, -6.6, -6.1
CCOC(=O)Nc1ccc2c(c1)N(C(=O)CN(C)C)c1ccccc1S2
 : -0.9, 0.1%, -9.6, -17.9, -2.6, -1.7
O=C(CNc1ccccc1OC(F)F)N1CCc2ccccc21
 : -0.4, 2.2%, -7.0, -14.2, -1.6, -3.2
CN1C(=S)SC(C)(C)C1(C)NO (stereo not given)
 : -0.2, -1.0%, u, -6.3, 2.2, 7.4
O=C(Nn1c(Cc2cccs2)nc2ccccc2c1=O)c1cccs1
 : 0.5, 6.0%[38.3 µM], -10.4, -4.6, 2.8, -0.7
COCCNC(=O)C1CCCN(C(=O)c2cc(C)n(C(C)(C)C)n2)CC1 (stereo not given)
 : 0.0, -1.2%, -6.9, 5.4, 1.8, -4.3
CCOC(=O)c1cc(-c2ccccc2)n(-c2cccc(C(=O)Nc3cccc(C)c3)c2)c1C
 : 1.4, 1.1%, x, 5.2, x, x
CCOC(=O)C1=C(CSc2nnnn2C)N(C)C(=O)NC1c1ccccc1 (stereo not given)
 : 0.8, 0.1%, 2.8, 62.7, -0.2, -4.5
CCOC(=O)Cc1n[nH]c(=O)c2ccccc12
 : 1.1, -0.2%, -3.7, 4.1, 4.9, -0.3
COc1ccc(S(=O)(=O)NC(C)C(=O)NCc2ccccn2)cc1OC (stereo not given)
 : -0.5, -1.2%, -4.8, 22.6, 1.1, -0.3
O=C(Nc1cc(S(=O)(=O)N2CCOCC2)ccc1N1CCCCC1)c1ccccc1
 : 4.2, 0.7%, -7.4, -16.5, -0.8, 2.2
CCOc1ccc(CNC(=O)CCCn2c(=O)c3cccn3c3cccnc32)cc1
 : 1.1, 2.0%, x, -2.5, x, x
CCCCC1CC1C(=O)Nc1ncc2c(n1)CC(C)(C)CC2=O (stereo not given)
 : 2.2, 1.1%[38.3 µM], -1.8, 12.1, -0.7, 0.3
CN(CC1COc2ccccc2O1)C(=O)Cn1cc(C(F)(F)F)ccc1=O (stereo not given)
 : -0.6, -0.1%, -4.1, 6.8, 1.5, -1.0
COc1ccc(/C=C2\SC(=O)N(CC(=O)NCCCn3ccnc3)C2=O)cc1
 : -0.1, -0.5%, -5.9, 4.1, -9.3, -0.4
O=C(CSc1nc2ccccc2c(=O)[nH]1)Nc1ccc(N2CCOCC2)c(Cl)c1
 : -0.5, 0.0%, -11.9, -8.4, -16.0, -0.4
CC(=O)NCCc1nc2cc(NC(=O)c3ccc([N+](=O)[O-])cc3)ccc2n1C
 : 0.0, 0.3%, -1.8, -10.0, 3.5, 1.8

# Complete entries, quoted from the list.
# Listed for CCCCC1CC1C(=O)Nc1ncc2c(n1)CC(C)(C)CC2=O (stereo not given) = TRPML1 ag = 2.2; PINK1 expr mod = 1.1%[38.3 µM]; D2 potentiator = -1.8; TRPML1 inh = 12.1; Six1-Eya2 inh = -0.7; D2 ag = 0.3
# Listed for O=C(Nn1c(Cc2cccs2)nc2ccccc2c1=O)c1cccs1 = TRPML1 ag = 0.5; PINK1 expr mod = 6.0%[38.3 µM]; D2 potentiator = -10.4; TRPML1 inh = -4.6; Six1-Eya2 inh = 2.8; D2 ag = -0.7

# The list goes on.
# Each structure is followed by: TRPML1 ag, PINK1 expr mod, D2 potentiator, TRPML1 inh, Six1-Eya2 inh, D2 ag
CC1CCN(c2c(NCc3ccc(C(=O)N4c5ccccc5CC4C)cc3)c(=O)c2=O)CC1 (stereo not given)
 : 0.9, 2.7%, -9.0, -6.5, -18.6, -4.2
CCN(c1ccccc1)S(=O)(=O)c1cc(NC(=O)Nc2ccccc2C#N)ccc1Cl
 : 1.6, 3.6%, -23.4, -14.1, -7.1, 0.1
CN(Cc1ccc(F)cc1)C(=O)c1cc(S(=O)(=O)N2CCCCC2)ccc1N1CCOCC1
 : 0.1, 7.5%, -11.1, -5.1, -3.9, 2.8
CCN(c1ccccc1)S(=O)(=O)c1ccc2[nH]c(=O)[nH]c2c1
 : 0.8, 0.2%, -2.4, 5.0, -2.3, 1.9
CC(C)(C)OCC(NC(=O)C(CC(N)=O)NC(=O)OC(C)(C)C)C(=O)OC(C)(C)C (stereo not given)
 : -0.3, -3.4%, -5.2, -9.2, 7.1, -0.4
C=CCn1c(SCC(=O)Nc2ccc(-c3nc4ccc(C)cc4s3)cc2)nnc1-c1ccccc1
 : 0.2, 9.4%, 14.6, -4.0, u, 9.3
COc1cc(/C=N/Nc2nc(C)cc(C)n2)cc(OC)c1OC
 : -0.7, 0.9%, -10.7, -8.8, -3.0, -2.2
COCCCn1c(SCC(=O)Nc2oc(C)c3c(C)n[nH]c(=O)c23)nc2sc3c(c2c1=O)CCC3
 : -0.7, -0.5%, -13.0, -22.9, 3.8, -3.6
CCCCN(CC)C(=O)Cn1cc2c(n1)-c1c(oc(C(=O)N3CCCC3)c1C)CC2
 : 0.9, 3.1%, x, -12.5, x, x
O=C(COC(=O)c1cc(-c2cccs2)nn1-c1ccccc1)Nc1ccc(Cl)c([N+](=O)[O-])c1
 : 1.0, 2.5%, -7.1, -11.5, -14.4, -1.0
CC(C)(C)OC(=O)N1CCC(c2c(C(=O)NC3CC3)cnn2-c2ccccc2)CC1
 : 0.8, -0.1%, -6.9, -19.9, 1.1, 4.0
CCOC(=O)N1CCC(NC(=O)c2cnn(-c3ccc(C)cc3C)c2C2CCN(C(=O)OC(C)(C)C)CC2)CC1
 : -0.8, 2.8%, x, -9.4, x, x
CCOC(=O)C(Cc1ccccc1)NC(=O)CCC(=O)c1ccc(OC)cc1 (stereo not given)
 : 2.0, 2.1%, -8.0, -6.5, 2.5, -4.1
O=C(O)CCC(=O)N1CCc2cc(S(=O)(=O)N3CCN(c4ccc(F)cc4)CC3)ccc21
 : 0.8, 3.0%, -1.0, -19.8, 8.8, -0.2
CCOC(=O)C1=C(C)N=c2sc(=Cc3cc(Cl)c(OCC(=O)O)c(OC)c3)c(=O)n2C1c1ccccc1Cl (stereo not given)
 : 2.5, 5.3%, -2.7, 15.0, 1.8, -4.2
O=C(COC(=O)c1ccc(NS(=O)(=O)c2cccs2)cc1)NCC1CCCO1 (stereo not given)
 : 0.0, -0.1%, -1.1, 27.0, -3.2, -4.3
O=c1oc2ccccc2cc1-c1cn2cccnc2n1
 : -0.6, x, -7.4, -10.0, -2.8, 1.2
CCCCNC(=O)CCn1c(=O)c2ccccc2n(CC(=O)Nc2ccccc2OCC)c1=O
 : -0.9, 3.3%, -11.5, 10.2, -1.2, -1.5
COc1ccc(-n2nc(C(=O)O)cc2-c2ccccc2)cc1
 : -0.7, 2.3%, 7.2, -10.1, -2.8, -4.5
CCC1=NN(C(=O)C(=O)Nc2ccc(OC)cc2)C(O)(C(F)(F)F)C1 (stereo not given)
 : 0.5, -0.4%[38.3 µM], -3.5, -10.5, -5.9, -1.2
CCOC(=O)c1c(S(=O)(=O)N2CCC(C(=O)NCc3ccc(F)cc3)CC2)c(C)n(C)c1C
 : -0.8, 1.1%, x, 7.3, x, x
COc1ccc(OC)c(S(=O)(=O)N2CCN(C)CC2)c1
 : 2.6, 4.3%[38.3 µM], -8.2, -5.1, 0.1, -0.5
O=C(OCC(=O)N1CCCCC1)c1cccc(NS(=O)(=O)c2ccccc2)c1
 : -0.8, -1.1%, 3.1, 7.5, -0.4, 0.4
